HSD17B inhib – qHTS Assay for Inhibitors of HSD17B4, hydroxysteroid (17-beta) dehydrogenase 4 | 3-hydroxyacyl-CoA dehydrogenase type-2 (Homo sapiens), Q99714 | recombinant HSD17B10, NADH fluorescence kinetic; many of its hits are not listed in these tables | hit rate 7.6% among 75,000 | Potency, µM (titrated, usually from 57.1 µM), without a hit: at the top dose activity change, negative = inhibition, actives largely listed as inhibitors; active means well fitted inhibition curve with a large enough effect; inconclusive means small, poorly fitted or top-dose-only effect; inactive means no such curve, though single readings can be large or run the other way;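 further: the protocol describes HADH2 (HSD17B10) and not the HSD17B4 of the title; nearly all actives have a fitted effect of over 70% in size; most hits overshoot -100% by far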
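Enzyme plus compound, 15 min room temperature; substrate mix added (NAD+ 1 mM, beta-hydroxybutyryl-CoA 90 uM final); plates read kinetically for NADH fluorescence. HADH2 was His-tagged, E. coli-derived, 20 nM.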
The depositor's hits bear a star; ? = inconclusive; & = joins results of further samples; [ ] = another dose, or the depositor's remark. On the % scale 0 is the no-effect control and ±100 the full control effect; potency means the concentration at half of the fitted maximal effect. The list is partial, so the mix of outcomes need not match the whole.

SMILES,HSD17B inhib
O=C(c1ccco1)N1CCC[C@@]2(CCN(c3cccc(-c4ccccc4)c3)C2)C1,-27%
COC(=O)c1cccc(OC(N)=O)c1,3%
Cc1ccc(-c2c3c(=O)n(C)c(=O)n(C)c3cn2-c2ccccc2O)cc1,0%
COC(=O)CCC(C)C1CCC2C3C(O)C[C@@H]4CC(O)CC[C@@]4(C)C3CC(O)[C@]12C (stereo partly drawn),-2%
Cc1nc(Nc2nc(=O)c3ccccc3n2C)nc2c(C)cccc12,?
COc1ccc2c(C)cc(C)nc2n1,9%[11.4 µM]
Cc1ccc(NC2c3ncccc3C(=O)N2C2CCCCC2)cc1 (stereo not drawn),-1%
CC1(C)CC(=O)C2=C(C1)OC(/N=C/N1CCOCC1)=C(C#N)C2c1ccccc1 (stereo not drawn),1%
O=C(CCSc1ccc(F)cc1)Nc1ccc(-n2cnnn2)cc1,-1%
Cc1ccc(-n2ncc3c(=O)[nH]c(SCC(=O)N4CCOCC4)nc32)cc1,1%
Cc1ccc(NCN2C(=O)C3C4C=CC(C4)C3C2=O)cc1 (stereo not drawn),1%
CCN(CC)CCNC(=O)Cc1nn(CC)c(=O)c2ccccc12,1%
CCOC(=O)c1ccc2c(c1)n(CCO)c(C)[n+]2CC,11%
CC(=O)O[C@@H]1CC[C@]2(C)C(=C[C@@H]([C@@H]3C=C4C[C@@H](OC(C)=O)CC[C@]4(C)C4=C3[C@H]3C[C@@H]5O[C@@]6(CC[C@H](C)CO6)[C@@H](C)[C@@H]5[C@@]3(C)CC4)C3=C2CC[C@@]2(C)[C@H]4[C@@H](C)[C@]5(CC[C@H](C)CO5)O[C@@H]4C[C@H]32)C1,-4%[11.4 µM]
CCCCOc1ccc(OCCNS(=O)(=O)N(C)C)cc1,-1%

Next section (3 carried over from the part before).
SMILES,HSD17B inhib
CCOC(=O)c1ccc2c(c1)n(CCO)c(C)[n+]2CC,11%
CC(=O)O[C@@H]1CC[C@]2(C)C(=C[C@@H]([C@@H]3C=C4C[C@@H](OC(C)=O)CC[C@]4(C)C4=C3[C@H]3C[C@@H]5O[C@@]6(CC[C@H](C)CO6)[C@@H](C)[C@@H]5[C@@]3(C)CC4)C3=C2CC[C@@]2(C)[C@H]4[C@@H](C)[C@]5(CC[C@H](C)CO5)O[C@@H]4C[C@H]32)C1,-4%[11.4 µM]
CCCCOc1ccc(OCCNS(=O)(=O)N(C)C)cc1,-1%
CC(=O)Nc1ccc(OCC=C(Cl)Cl)cc1,2%
O=C(CCCn1c(=O)c2sccc2n(Cc2cc(=O)n3ccccc3n2)c1=O)NCc1ccco1,32µM*
CCOC(=O)c1sc2nccc(N(C)C)c2c1N=CN(C)C,4%
COc1ccc(CN2C(=O)CCC2(C)C(=O)NC2CCCCC2)c(OC)c1 (stereo not drawn),11%
CC1CC(C)(C)NC(=S)S1 (stereo not drawn),-2%
COc1ccc(N2C(=O)CSC23C(=O)N2CCCc4cccc3c42)cc1 (stereo not drawn),6%
CN1CCN(Cc2c(O)ccc3c2oc(=O)c2ccccc23)CC1,-4%
Cc1ccccc1C(=O)c1cccn1CC(=O)NCc1ccco1,-3%
Cc1cc(C(=O)NC2CCCC2)on1,5%
COC(=O)c1ccccc1NC(=O)C12CCC(C)(C(=O)O1)C2(C)C (stereo not drawn),?
O=C(CSc1nnnn1C1CCCCC1)NCc1ccc2c(c1)OCO2,-6%
CCCN(c1ccc(OCC)cc1)c1ncnc2nc[nH]c12,29%
COC(=O)c1cccc(Nc2nc3ccccc3nc2C)c1,-8%
CN1CC[C@H](CN2c3ccccc3Sc3ccccc32)C1,3%[11.4 µM]
CCCCCn1c(SCCC(C)C)nc2c1c(=O)[nH]c(=O)n2C,-15%
CCOC(=O)c1c(N)sn(-c2ccccc2)c1=S,3%
CCCn1c(SCC(N)=O)nnc1-c1ccco1,1%
COc1ccc(S(=O)(=O)NCC2CCC(C(=O)N3CCC4(CC3)OCCO4)CC2)cc1 (stereo not drawn),10%
CCn1c(SCC(=O)NCCc2ccccc2)nnc1-c1cccs1,2%
CC(=O)N1CC2(CC2)CC1c1ccccc1 (stereo not drawn),9%
CS(=O)(=O)N1CCC(C(=O)Nc2cccc(C(F)(F)F)c2)CC1,6%
O=C(O)CCC(=O)NCCn1c(-c2ccccc2)csc1=Nc1ccccc1,3%
NC(N)=NC(N)=Nc1ccccc1,5%&-29%
COc1ccc(NC(=O)Nc2ccc(C)cc2OC(F)F)cc1OC,1%
Nc1cc(C(=O)c2cccs2)ccc1Cl,-5%
CCCOC(=O)Nc1nc2ccccc2o1,-7%
CN(C)CC(C)(C)CNC(=O)c1ccc(Cc2nc3ccccc3[nH]2)cc1,-2%
CCOc1ccc(CCNC(=O)CN2CCN(Cc3ccc(F)cc3)C2=O)cc1OCC,6%
CCOC(=O)c1c(NC(=O)c2ccc(S(=O)(=O)N3CCOCC3)cc2)sc2c1CCN(C)C2,7%
C=CCNC(=O)c1cc(-c2ccc(Br)cc2)on1,1%
O=C(O)C(=Cc1ccnc2ccccc12)C(=O)O,-1%[11.4 µM]
CCCn1c(-c2ccc(F)cc2)nc2c(NCCCCN(CC)CC)nc(C)nc21,25µM*
CCOCC(=O)Nc1nnc(C)s1,-5%
CCCS(=O)(=O)N1CCCC(C(=O)NCc2cccnc2)C1 (stereo not drawn),6%
CC(C)c1cc(C(N)=O)c(NC(=O)C2CCC2)s1,5%
COc1ncc2nc(-c3cn(C)c4ccccc34)c(=O)n(C[C@H]3CCCO3)c2n1,10%
CCOc1ccc(C2/C(=C(\O)c3ccc(OC)c(OC)c3)C(=O)C(=O)N2c2cc(C)on2)cc1OC (stereo not drawn),5%
Cn1cc(CC(=O)NCCCN2CCCC2=O)c2ccccc21,-19%
O=C(Nc1cccc(F)c1)N1CCCC2(CCN(C(=O)c3cnccn3)CC2)C1,0%
COCCNC(=O)c1ccc2c(c1)nc(C)n2-c1cccc(F)c1,9%
O=C(c1ccco1)N1CCN(c2ncccn2)CC1,?
CCCn1cc(S(=O)(=O)CC(=O)Nc2ccc(OC)cc2OC)c2ccccc21,-7%
COc1ccc(OC)c(-c2cc(C(=O)Nc3c(C)nn(Cc4ccccc4Cl)c3C)no2)c1,32µM*
Cn1c(=O)c2c(SC3CCCC3)nc(C3CC3)nc2n(C)c1=O,-4%
Cc1ccc(CC(=O)N2CCC(c3nc4c(nnn4Cc4ccccc4)c(=O)[nH]3)CC2)cc1,4%

Structural class: the compounds so far with fluorine.
SMILES,HSD17B inhib
O=C(CCSc1ccc(F)cc1)Nc1ccc(-n2cnnn2)cc1,-1%
CS(=O)(=O)N1CCC(C(=O)Nc2cccc(C(F)(F)F)c2)CC1,6%
COc1ccc(NC(=O)Nc2ccc(C)cc2OC(F)F)cc1OC,1%
CCOc1ccc(CCNC(=O)CN2CCN(Cc3ccc(F)cc3)C2=O)cc1OCC,6%
CCCn1c(-c2ccc(F)cc2)nc2c(NCCCCN(CC)CC)nc(C)nc21,25µM*
O=C(Nc1cccc(F)c1)N1CCCC2(CCN(C(=O)c3cnccn3)CC2)C1,0%
COCCNC(=O)c1ccc2c(c1)nc(C)n2-c1cccc(F)c1,9%

Next section:
SMILES,HSD17B inhib
CCCCCC1CCC(C(=O)O)CC1 (stereo not drawn),3%
CC1CCN(C(=O)CSc2nnc(-c3cccnc3)n2C2CCCCC2)CC1,-7%
Cc1cc(N2CCCC(C(=O)Nc3ccc4c(c3)CCC4)C2)n2ncnc2n1 (stereo not drawn),3%
COc1cc(OC)nc(NC(=O)CSc2nc3ccccc3[nH]2)n1,-2%
CCOC(=O)c1ccccc1NC(=O)CSc1nc2ccccc2o1,-22%
Nc1ccc(N2CCCCCC2)cc1,?
CCOC(=O)c1ccccc1NC(=O)Cn1cnc2c(cnn2-c2ccc(F)cc2)c1=O,-3%
NS(=O)(=O)c1ccc(N=Nc2c[nH]c(=O)c(O)c2)cc1,-14%[11.4 µM]
Cc1ccc(S(=O)(=O)NC2=NCCC2)cc1,11%
CCc1c(C#N)c(SCc2c(C)noc2C)nc2c1C(=O)CC(C)(C)C2,3%
Cc1ccc(-c2nnn(CC(=O)N(CC(=O)NC3CCCCC3)c3cnc4ccccc4c3)n2)o1,8%
COC(=O)N1CCC2(CC1)CCN(c1ncccn1)CC2,-24%
COc1ccccc1NC(=O)CN1CCN(CC(=O)Nc2ccc3c(c2)OCCO3)CC1,-7%
CC1(C)Cc2nc3sc4c(=O)n(CC(=O)NCc5ccco5)cnc4c3cc2CO1,-7%
CC(C)/C(O)=C1/C(=O)OC(c2ccoc2)[C@@]2(C)C(O)C(O)[C@@]34OC5(C)OC67CC(C)(C(O)[C@@]6(O)C(O)[C@@]3(O5)C12)C(CC(=O)O)[C@@]74C (stereo partly drawn),-2%
CCN(c1cccc(C)c1)S(=O)(=O)c1ccc2[nH]c(=O)c(=O)[nH]c2c1,25µM*
CN1CCn2c1nc(N1CCOCC1)nc2=O,4%
CCN1CCCC(OC(=O)Nc2ccccc2)C1 (stereo not drawn),0%
CC(C)Sc1nc2c(c(=O)n(C)c(=O)n2C)n1C,1%
CCOC(=O)N1CCN(S(=O)(=O)c2cccc3cccnc23)CC1,6%
Cc1ccc2c(c1)c1ncn(CCC3=CCCCC3)c(=O)c1n2C,32µM*
CC(C)C(c1nnnn1Cc1ccco1)N1CCN(c2nc3ccccc3s2)CC1 (stereo not drawn),2%
C=CCSc1nnc2c(n1)OC(c1cccnc1)N(C(C)=O)c1ccccc1-2 (stereo not drawn),-2%
CCOC(=O)CSC1=Nc2ccccc2C2=NC(CC(=O)NCc3ccc(OC)cc3)C(=O)N12 (stereo not drawn),-16%
CCOC(=O)C(NC(=O)OC(C)C)(Nc1nccs1)C(F)(F)F (stereo not drawn),2%
Cc1ccc(S(=O)(=O)N(C)CC(=O)N2CCOCC2)cc1,1%
O=C(COC(=O)Cn1cnc2ccccc21)Nc1ccc2c(c1)OCCO2,8%
CCn1c(CNC(=O)c2ccc(OC)c(OC)c2)nnc1SCC(=O)c1ccc(OC)cc1,-4%
COc1cc2c(cc1O)C(Cc1ccc(O)cc1)[N+](C)(C)CC2 (stereo not drawn),2%
CCOC(=O)c1coc(CNC(=O)c2c(C)oc3c2CCCC3)c1,-2%
O=C(c1cc2c(s1)CCC2)N1C(=O)c2ccccc2S1(=O)=O,13%
O=C(c1ccco1)N1CCN(CC(O)COc2ccc3oc4ccccc4c3c2)CC1 (stereo not drawn),-6%
CCOC(=O)C1CCCN(C(=O)c2cncc(Br)c2)C1 (stereo not drawn),8%
O=S(=O)(c1ccccc1)N1CCC[C@@]2(CCN(c3cccc(-c4ccccc4)c3)C2)C1,-17%
O=C(NCc1ccccn1)C1CCCN(S(=O)(=O)c2ccccc2)C1 (stereo not drawn),5%
CCOC(=O)CCCNC(=O)CN1C(=O)NC2(CCCCCC2)C1=O,5%
CC1=C(C#N)C(c2ccc3ncccc3c2)C(C#N)=C(C)N1,16%
COc1ccc(C)cc1NC(=O)NCCC1=CCCCC1,4%
Cc1cc(C)nc(/N=C2\NC(=O)CC3C(=O)NCCN23)n1 (stereo not drawn),4%
Fc1ccc(Nc2ncncc2-c2ccoc2)cc1,-30%
C1CCc2nnc(-c3nnc4n3CCCCC4)n2CC1,2%
CCOC(=O)C1=C(N)n2c(s/c(=C\c3cccs3)c2=O)=C(C(=O)OCC)C1c1cccs1 (stereo not drawn),-21%
CCC1C(=O)N=C(SCC(=O)Nc2cccc3ccccc23)NC1=O (stereo not drawn),-11%
CC(=O)c1ccc(NC(=O)Cn2nc(C)cc2C)cc1,-8%
Cc1[nH]c2ccccc2c1-c1nc2ccccc2[nH]1,32µM*
Nc1ncnc2c1ncn2CCNCCc1ccccc1,2%
CCOc1nc(C)ccc1-c1noc(-c2ccco2)n1,-9%
Cn1c(N)c(C(=O)COC(=O)CCCc2c[nH]c3ccccc23)c(=O)n(C)c1=O,-8%
CN1CC2(Cc3c1ccc1ccccc31)C(=O)OC(C)(C)OC2=O,7%
Cc1cc(NCc2ccccc2)nc(-c2ccccc2O)n1,32µM*
O=C(CSC1=NCCS1)N1CCCCCC1,11%
CCN(CC)S(=O)(=O)c1cccc(-c2nnc(SC(C)C(=O)NCCC3=CCCCC3)o2)c1 (stereo not drawn),9%
CN1C=CC(=C2C(=O)c3ccccc3C2=O)C=C1,2%
O=C(NCC1COc2ccccc2O1)c1ccc(NC(=O)C2CCCO2)cc1 (stereo not drawn),-10%
COc1cccc(-c2noc(C3CCCN(C(=O)Cc4ccccc4)C3)n2)c1 (stereo not drawn),-18%
COCCCNC(=O)CN(c1cccc(Cl)c1)S(C)(=O)=O,5%
CC(C)c1nc(-c2c(N)n(C)c(=O)n(C)c2=O)sc1C(=O)C(C)(C)C,12%
COc1ccc(C2(C(=O)NCC3CCCO3)CCOCC2)cc1 (stereo not drawn),-6%
CC(=O)N1c2c(cc(Br)cc2S(=O)(=O)NCC2COc3ccccc3O2)CC1C (stereo not drawn),0%

Assay outcomes (PubChem BioAssay)
